StopGo reporter – lowers the luciferase signal of an FMDV 2A StopGo reporter | hit rate 1.2% among 410,000 | Potency, µM (titrated, usually from 57.9 µM), for the others: at the highest dose signal change, negative = less light | human cells with a luciferase reporter of 2A StopGo recoding; control for the full effect not named in the record; active = well fitted falling curve with a large enough effect; inconclusive = small, poorly fitted or top-dose-only effect; inactive = no such curve, though single readings can be large or run the other way; tested in HEK293T cells; also: % is scaled to controls: 0 for no effect and ±100 for the full control effect; nearly all actives have a fitted effect of over 45% in size; luciferase light after 4 h
SARS PLpro yeast – inhibitors of SARS-CoV papain-like protease in yeast. S. cerevisiae expressing SARS-CoV PLpro, growth rescue; control for the full effect not named in the record. Potency, µM (series often up to 32.9 µM), without a hit: at the top dose activity, positive = growth rescue. hit rate 0.19% among 330,000. AID 485353; active means well fitted rising curve with a large enough effect; inconclusive means small, poorly fitted or top-dose-only effect; inactive means no such curve, though single readings can be large or run the other way; also: 0% is about no effect; nearly all actives have a fitted effect of over 55% in size; growth read by luminescence after 48 h
RE007 growth inh – less growth of the S. pombe RE007 Vpr strain; S. pombe RE007 Vpr strain, BacTiter-Glo ATP luminescence, 24 h; control for the full effect not named in the record; Potency, µM (series often up to 92.2 µM), for inactives: at the top dose activity change, negative = less growth; hit rate 0.21% among 360,000; AID 651644; active = well fitted falling curve with a large enough effect; inconclusive = small, poorly fitted or top-dose-only effect; inactive = no such curve, though single readings can be large or run the other way;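 also: % is scaled to controls: 0 for no effect and ±100 for the full control effect; nearly all actives have a fitted effect of over 50% in size; the assay follows cell death caused by Vpr and the record does not say whether a fall means rescue or toxicity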
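Fission yeast strain RE007, carrying one chromosomally integrated HIV-1 vpr copy, was seeded at OD 0.01 in PMG+AL medium with 23 nL pinned compound. After 24 h at 30 °C and 99% humidity, viability was read by BacTiter-Glo luminescence.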
An asterisk follows results filed as active; ? = inconclusive; [ ] = another dose, or the depositor's remark. Potency is read from the fitted curve at half-maximal effect. These rows are one share of the data; rates above refer to the full screens.

SMILES	StopGo reporter	SARS PLpro yeast	RE007 growth inh
O=C(N[C@@H](Cc1ccccc1)C(=O)OCc1ccccc1)c1nc[nH]c1C(=O)N1CCNCC1	-3%	-2%	13%
Cc1ccc(C(C)C)c(OCC(=O)NNCC(=O)Nc2cccc(F)c2)c1	-18%	-11%	-8%
CSc1nc(N2CCOCC2)nc2ccc(C)cc12	30%	0%	-18%
O=C(Nc1cccc(C(=O)NC2CC2)c1)c1ccc(Cl)c(S(=O)(=O)N2CCOCC2)c1	?	2%	3%
O=C(NN=C1CCCC1)c1ccc([N+](=O)[O-])cc1	-11%	0%	-1%
CCN(CC)C(=O)c1[nH]cnc1C(=O)Nc1ccc(C)cc1	-14%	5%	-7%
COc1ccc(S(=O)(=O)N(C)C[C@H]2Oc3c(NC(=O)Cc4ccccc4)cccc3C(=O)N([C@H](C)CO)C[C@@H]2C)cc1	-7%	4%	15%
COC(=O)C1=C(c2ccc(Cl)c(C(F)(F)F)c2)C[C@@H]2CC[C@H]1N2C(=O)NCCOc1ccc(OC)cc1	?	1%	22%
O=C(CNC(=O)c1ccc(Br)cc1)NC1CC1	-5%	-3%	-4%
COc1cc2sc3cc(NCc4ccc(C)o4)ccc3c(=O)c2cc1OC	37%[activator]	1%	-24%
O=C(CSc1nnc(N2CCCC2)n1-c1ccccc1Cl)N1CCN(c2ccccn2)CC1	-10%	8%	-15%
CCOC(=O)[C@H]1[C@H]2COc3ccccc3[C@@H]2N2C(=O)c3ccc(C)cc3NC(=O)[C@@]12C	-22%	-1%	6%
Nc1ncnc2c1ncn2[C@@H]1O[C@H](CNCc2ccccc2OCc2ccc(Cl)cc2Cl)[C@@H](O)[C@H]1O	-24%	-1%	-27%
Cc1csc(SC(C)C(=O)Nc2ccc3c(c2)OCCO3)n1 (stereo not given)	46%[activator]	-10%	3%
O=C(CSc1ccc([N+](=O)[O-])cc1)Nc1ccccc1N1CCOCC1	?	-2%	-9%
NC(=O)c1ccccc1NC(=O)COC(=O)CSCc1cccc(Cl)c1	-13%	0%	-5%
CN(C)C(=O)CCc1ccc2c3c([nH]c2c1)[C@]1(C)[C@@H](C(=O)N2CCOCC2)C[C@H](CC(=O)NCCC2=CCCCC2)C(=O)N1CC3	8%	-7%	-3%
C=CCSc1nnc(NC(=O)C2CC(=O)N(c3ccc4c(c3)OCCO4)C2)s1 (stereo not given)	-22%	3%	13%
COc1ccccc1NS(=O)(=O)c1ccc(C)c(C(=O)NNC(=O)c2csc(N3CCOCC3)n2)c1	-9%	0%	6%
Cc1ccc(NC(=O)COC(=O)c2ccc3c(=O)n4c(nc3c2)CCC4)c(Br)c1	2%	0%	5%

Five structures out of the list, arranged by heavy-atom count, falling.
SMILES	StopGo reporter	SARS PLpro yeast	RE007 growth inh
Nc1ncnc2c1ncn2[C@@H]1O[C@H](CNCc2ccccc2OCc2ccc(Cl)cc2Cl)[C@@H](O)[C@H]1O	-24%	-1%	-27%
O=C(N[C@@H](Cc1ccccc1)C(=O)OCc1ccccc1)c1nc[nH]c1C(=O)N1CCNCC1	-3%	-2%	13%
O=C(Nc1cccc(C(=O)NC2CC2)c1)c1ccc(Cl)c(S(=O)(=O)N2CCOCC2)c1	?	2%	3%
Cc1ccc(C(C)C)c(OCC(=O)NNCC(=O)Nc2cccc(F)c2)c1	-18%	-11%	-8%
NC(=O)c1ccccc1NC(=O)COC(=O)CSCc1cccc(Cl)c1	-13%	0%	-5%

The list goes on:
SMILES	StopGo reporter	SARS PLpro yeast	RE007 growth inh
COc1ccccc1NS(=O)(=O)c1ccc(C)c(C(=O)NCc2cccnc2)c1	-5%	-3%	-6%
COC(=O)c1cc(C(=O)OCC(=O)NC2CCCCCCC2)cc([N+](=O)[O-])c1	-13%	-1%	10%
COCc1ccc(C(=O)N2CCN(CC(=O)N3CCCC3)CC2)cc1	-1%	2%	-10%
COc1ccc(C2=NCCn3nc4ccccc4c32)cc1	33%[activator]	-10%	6%
CCOC(=O)Cc1csc(SCC(=O)Nc2ccc3[nH]c(=O)[nH]c3c2)n1	-10%	-5%	6%
O=C(Nc1ccc(F)cc1)Nc1ccc(S(=O)(=O)N2CCCC2)cc1	6%	2%	4%
C#CCC(NC(=O)c1ccc(C(F)(F)F)cc1)C(=O)NCCC (stereo not given)	0%	5%	14%
CC1Cc2ccccc2N1C(=O)CN1C(=O)NC2(CCCCC2)C1=O (stereo not given)	0%	1%	25%
COc1ccc2nc(NCCNC(=S)NCCCN3CCOCC3)c(C#N)cc2c1	3%	6%	1%
CC(=O)c1ccc(O[C@@H]2O[C@H](CO)[C@@H](O)[C@H](O)[C@H]2O)cc1	-10%	-46%	10%
O=C(COC(=O)CNS(=O)(=O)c1ccccc1)Nc1ncc(Cl)cc1Cl	-13%	-10%	25%
O=S(=O)(c1ccc(-n2cnnn2)cc1)N1CCC(N2CCCCC2)CC1	-10%	1%	7%
O=C(O)[C@H]1CCCN1S(=O)(=O)c1cccc2cccnc12	5%	-3%	-2%
CCCC[C@@H](C)C[C@@H](C)C(=O)N(C)[C@@H](CC(C)C)C(=O)N[C@H](C(=O)N(C)[C@H](C(=O)N1C[C@@H](O)C[C@H]1C(=O)N1C(=O)C=C[C@@H]1C)C(C)C)C(C)OC(C)=O (stereo not given in full)	?	0%	6%
CCC(COC(=O)c1ccccc1)Oc1cc(NCc2ccccc2)c2ncn(C(C)C)c2c1 (stereo not given)	-29%	4%	-15%
CC(=O)C[C@@H](O)CC(=O)[C@@H]1OC(=O)[C@H](C)C/C=C\Cc2ccccc21	-19%	-8%	82%
O=S(=O)([O-])C(c1ccccc1)[n+]1ccccc1 (stereo not given)	-9%	0%	-2%
COc1ccc(NS(=O)(=O)c2cccc(C(=O)NCc3ccccc3CN3CCCC3)c2)cc1	-4%	0%	-19%
O=c1ccn([C@@H]2O[C@H](COS(=O)(=O)O)[C@@H](O)[C@H]2O)c(=O)[nH]1	0%	3%	10%
CC(C)C[C@@H]1CN=C(N)N1C[C@@H]1CCCN1C[C@@H](C(C)C)N1C[C@@H](Cc2ccccc2)N(CCc2ccc(Cl)c(Cl)c2)C1=N	-8%	1%	-1%
CN(C(=O)c1ccc(NC(=O)Cc2cccc([N+](=O)[O-])c2)cc1)C1CCCC1	-28%	-2%	3%
CN(CC(=O)Nc1ccc(Cl)c(C(F)(F)F)c1)C(=O)/C=C/c1cccs1	-20%	?	6%
CC(OC(=O)c1ccc(Cl)c(S(N)(=O)=O)c1)C(=O)NCC1CCCCC1 (stereo not given)	3%	-4%	-2%
CSc1ccc(CN(C)C(=O)C2CCN(C(=O)Nc3ccccc3)CC2)cc1	?	0%	6%
C[C@H](CO)N1C[C@H](C)[C@@H](CN(C)Cc2ccccc2)Oc2c(NC(=O)C3CCCCC3)cccc2C1=O	-3%	-16%	16%
CC[C@]1(C(=O)OC)[C@H]2C(=O)N(C)C(=O)[C@H]2[C@H]2CN(C)C(=NC3CCCCC3)N21	-16%	1%	-20%
N#Cc1ccc(S(=O)(=O)N2CCN(CC(=O)Nc3ccccc3C(=O)NC3CC3)CC2)cc1	?	-3%	-3%
Cc1ccc(CN2C(=O)CCC2C(=O)N2CCN(c3ccccc3)CC2)cc1 (stereo not given)	-2%	1%	11%
CCN(CC(=O)NCc1ccc(F)cc1)C(=O)CCNS(=O)(=O)c1cccc(C)c1	0%	5%	18%
C[C@H](CO)N1C[C@H](C)[C@@H](CN(C)S(=O)(=O)c2ccc(F)cc2)Oc2ccc(NC(=O)CCN3CCOCC3)cc2C1=O	1%	4%	-10%
Cc1cnc(C(=O)Oc2c(C)ccc(C)c2C)cn1	-26%	0%	38%
Cc1ccc(S(=O)(=O)N2CCN(C(=O)Cn3nc(C)c([N+](=O)[O-])c3C)CC2)cc1	-19%	5%	-12%
COc1ccc([C@H]2CC(=O)C=C(c3ccc(Cl)c(Cl)c3)C2)cc1	5%	-1%	13%
C[C@@H]1COC(=O)[C@H](Cc2ccc(F)cc2)CC/C=C\C[C@@H](CC(=O)NCCO)C(=O)N1	1%	3%	10%
CC(C)Cc1nnc(NC(=O)C2=COCCO2)s1	53%[activator]	4%	-7%
CCN(CC(=O)NCc1cccs1)CC(=O)Nc1ccccc1C	-3%	11%	-14%
CC(C)(C)c1ccc(/C=C/C(=O)NC2CCS(=O)(=O)C2)cc1 (stereo not given)	4%	-2%	16%
COc1cccc(NC(=O)CN(C)C(=O)c2csc3c2CCCC3)c1	-22%	-1%	-10%
CC(C)=CC(=O)O[C@@H]1Cc2c(ccc3ccc(=O)oc23)OC1(C)C	-25%	-2%	-3%
Cc1nc2nc(SCC(=O)O)nn2c(C)c1Cc1ccccc1Cl	-6%	-2%	-6%
CCOC(=O)N1CCN(C(=O)c2cn(CC)c3ccc(S(=O)(=O)N4CC(C)CC(C)C4)cc3c2=O)CC1 (stereo not given)	-24%	0%	4%
CCOC(=O)c1ccc(NC(=O)C2CC(O)CN2S(=O)(=O)c2ccc(C)cc2)cc1 (stereo not given)	-26%	1%	-7%
COC(=O)c1cc(Br)ccc1N(Cc1cc(OC)cc(OC)c1)S(C)(=O)=O	-16%	2%	-11%
CC(=O)c1ccc(N2CCN(CC(=O)NC(=O)NCc3ccccc3)CC2)cc1	-15%	4%	3%
O=C(C[C@@H]1C/C=C\C[C@@H](NC(=O)OCC2c3ccccc3-c3ccccc32)C(=O)OCCNC1=O)N[C@@H](CO)Cc1ccccc1	-17%	4%	2%
Cc1cccc(NC(=O)CNC(=O)COC(=O)c2ccco2)c1C	-22%	?	-4%
COc1ccc(C2=NCCn3nc4cc(C(F)(F)F)ccc4c32)cc1	11%	-10%	-5%
C=CC[C@H](CC(=O)NCCO)C(=O)NCCOC(=O)[C@@H](CC=C)Cc1ccc(F)cc1	-16%	3%	4%
CCC(C)Sc1ccc([C@H]2N[C@@](CC(C)C)(C(=O)OC)[C@H]3C(=O)N(CC)C(=O)[C@@H]23)cc1 (stereo not given in full)	?	-8%	-7%
CC(=O)OC(C)[C@H]1CC[C@H]2[C@@H]3CC[C@H]4C[C@@H](OC(C)=O)CC[C@]4(C)C3=CC[C@]12C (stereo not given in full)	?	0%	1%
Going on with the list.
SMILES	StopGo reporter	SARS PLpro yeast	RE007 growth inh
N#Cc1cc2c(=O)n3ccccc3nc2n(-c2ccc(Cl)cc2)c1=O	5%	1%	-5%
COc1ccc(CNC(=O)CCc2ccc(S(=O)(=O)N3CCCCCC3)cc2)cc1	-17%	10%	9%
CC(OC(=O)Cn1ccccc1=O)C(=O)Nc1cc(Cl)cc(Cl)c1 (stereo not given)	-1%	-3%	12%
CC(C)C[C@H](NC(=O)c1nc[nH]c1C(=O)NCCNC(=O)OC(C)(C)C)C(=O)CNCCNC(=O)c1[nH]cnc1C(=O)N[C@@H](C)C(=O)OC(C)(C)C	-9%	-8%	7%
CCN(CC(=O)NCc1cccs1)C(=O)c1ccc(S(=O)(=O)N(CC)c2ccccc2)cc1	-19%	-2%	18%
CCOC(=O)C1=CN(Cc2cccc(-c3ccc4c(c3)OCO4)c2)S(=O)(=O)N(C)C1C (stereo not given)	-28%	3%	5%
Cc1cccc([C@@H](NC(=O)OC(C)(C)C)C(=O)OC(C)(C)C)c1	-17%	0%	-1%
CC(=O)c1cccc(NC(=O)C(C)OC(=O)c2ccc(Br)o2)c1 (stereo not given)	-19%	-3%	7%
COc1cc(C(=O)Nc2ccn(C)n2)ccc1OC(F)F	51%[activator]	1%	-9%
C=CCC[C@@H](Cc1ccc(F)cc1)C(=O)OC[C@@H](Cc1c[nH]c2ccccc12)NC(=O)[C@@H](CC=C)CC(=O)N[C@@H](CO)Cc1ccccc1	-19%	7%	-12%
O=C(COC(=O)CNC(=O)c1ccccc1F)NC12CC3CC(CC(C3)C1)C2	-15%	-3%	9%
Cc1ccc(C(=O)Nc2cccc(S(=O)(=O)N3CCCC3)c2)o1	-19%	-1%	12%
CC(C)(C)NC(=O)CSc1nc2cc(S(=O)(=O)N3CCCCC3)ccc2o1	?	4%	2%
C=CCn1nc2ccccc2c1OCCO	38%[activator]	2%	2%
Cc1ccccc1NC(=O)NC(N)=O	-5%	3%	6%
O=C(COC(=O)[C@H](Cc1ccccc1)NC(=O)c1ccco1)Nc1ccccc1	-13%	-6%	8%
Cn1c(SCC(=O)NCc2ccco2)nnc1C1CC1	13%	5%	29%
CCc1nc2ccccc2c(C(=O)OCC(=O)NC2CC2)c1C	-21%	-1%	-11%
COc1ccc(-c2sc3ccc(N4CCOCC4)cc3c2C#CC2(O)CCCCC2)cc1	?	2%	-1%
CC(C)(C)OC(=O)NCCCCCNC(=O)c1nc[nH]c1C(=O)NCc1ccccc1	?	2%	9%
CN(C(=O)c1ccccc1C(=O)OCC(=O)Nc1ccc(OC(F)F)cc1)c1ccccc1	-6%	-8%	-2%
COC(=O)c1cc(-c2ccc(Cl)cc2Cl)n[nH]1	42%[activator]	-2%	-18%

Bioassay records: PubChem BioAssay, National Center for Advancing Translational Sciences (NCATS)
